Screening results from PubChem BioAssay.
DUX4 txn inh = inhibitors of DUX4-driven ZSCAN4 reporter expression, primary screen, 293T cells, Gaussia and Italica luciferase. activity change, negative = inhibition, % (concentration not given with the values). 37,000 compounds, 0.8% hits. 293T-iDUX4 ZSCAN4-Gaussia luciferase reporter, 24 h; active compounds read low. AID 1224904, 2016;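 active means -10% or lower and over 25 points stronger than a control reporter; inconclusive means -10% or lower with a smaller gap; inactive means above -10%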;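 further: 0% = median of neutral control wells and -100% = median of positive control wells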
DUX4 txn inh difference = second read-out of DUX4 txn inh, no call of its own (marks repeat the call); Gaussia minus Italica difference, %; measured here: selective DUX4 reporter inhibition;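 worked out from the two reporters; negative = selective loss of the DUX4 reporter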
DUX4 txn inh control = also measured in DUX4 txn inh; calls as there; activity change, negative = inhibition, %; measured here: Italica tet-on control reporter;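 0 = neutral control and -100 = positive control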
* hit, by the source's call; ? = inconclusive; . = not tested or not shown. The list is partial (hit frequency here may not be typical).

Compound	DUX4 txn inh	DUX4 txn inh difference	DUX4 txn inh control
C[C@H](CO)N1C[C@H](C)[C@@H](CN(C)C(=O)Nc2ccc3c(c2)OCO3)Oc2c(NC(=O)c3nc4ccccc4s3)cccc2C1=O	-2.1	-1.0	-1.1
OC[C@@H]1[C@@H](c2ccc(-c3ccc(F)cc3)cc2)[C@H]2CN(Cc3cccnc3)CCCCN12	4.7	1.4	3.3
CCN(C[C@H]1N[C@H](CO)[C@H]1c1ccc(C2=CCCC2)cc1)C(=O)c1ccncc1	-3.1	-5.1	2.0
CC(C)[C@H]1CCc2cnnn2COC[C@H](c2ccccc2)NC1=O	0.8	-2.9	3.7
O=C(C1CCC1)N1CC[C@@H]2[C@H]1c1cc(C#Cc3ccc(F)cc3)ccc1N[C@@H]2CO	-4.4	-26.1	21.7
CCCNC(=O)N1[C@H](CO)[C@@H]2c3ccccc3N(C(=O)Nc3cccc(F)c3)C[C@@H]21	2.7	4.4	-1.7
Cc1ccccc1S(=O)(=O)N(C)C[C@@H]1OCc2ccccc2-c2c(n(C)c3ccccc23)C(=O)N([C@H](C)CO)C[C@H]1C	-34.0*	-27.3*	-6.7*
COC(=O)C[C@@H]1C[C@H]2c3cc(NC(=O)Nc4ccc(C(F)(F)F)cc4)ccc3O[C@H]2[C@H](CO)O1	-3.9	4.1	-8.0
COc1ccc2c3c([nH]c2c1)[C@@H](CO)N(C(=O)Cc1ccccc1)CC31CN(C(=O)Cc2ccccc2)C1	11.0	-3.8	14.7
CC=Cc1ccc2n(c1=O)C[C@@H]1[C@@H](CO)[C@H](C(=O)NCCc3ccncc3)N(CCC(F)(F)F)[C@H]21 (mixture of isomers)	4.5	0.7	3.8
COc1cccc(CN(C)C[C@H]2OCc3ccccc3-c3ccccc3C(=O)N([C@@H](C)CO)C[C@H]2C)c1	3.9	-6.1	10.0
C[C@@H]1CN([C@@H](C)CO)C(=O)c2c(c3ccccc3n2C)-c2ccccc2CO[C@H]1CN(C)S(=O)(=O)c1ccccc1F	?	.	.
Cc1ccc(S(=O)(=O)N2C[C@@H](O)COC[C@@H]3O[C@H](CC(=O)N[C@H]4CCN(Cc5ccccc5)C4)CC[C@H]32)cc1	12.8	10.9	1.9
COCC(=O)Nc1ccc2c(c1)C(=O)N(C)[C@H]1CC[C@H](CC(=O)NCc3ccc(OC)cc3)O[C@@H]1CO2	1.6	-0.8	2.3
COc1cccc(-c2ccc([C@@H]3[C@@H](CO)N4CCCCN(S(=O)(=O)c5cccs5)C[C@@H]34)cc2)c1	?	.	.
C[C@H](CO)N1C[C@H](C)[C@H](CN(C)C(=O)c2cc(Cl)cc(Cl)c2)OCc2ccccc2-c2ccccc2C1=O	?	.	.
C[C@H]1CCCCO[C@@H](CN(C)C(=O)CCCN(C)C)[C@@H](C)CN([C@@H](C)CO)C(=O)c2cc(NC(=O)CCC(F)(F)F)ccc2O1	-0.8	-2.7	1.8
OC[C@@H]1[C@H](c2ccc(-c3cccnc3)cc2)[C@H]2CN(Cc3ccccn3)CCCCN12	8.6	12.8	-4.2
CCNC(=O)C[C@H]1CC[C@H]2[C@H](COc3ccc(NS(C)(=O)=O)cc3C(=O)N2C)O1	3.0	-0.3	3.2
C[C@H]1CN([C@@H](C)CO)C(=O)c2ccccc2-c2ccccc2CO[C@H]1CN(C)Cc1cccc2c1OCCCO2	-0.2	-6.6	6.4

Reformatted with values under each structure: part of the list above.
Results follow in this order: DUX4 txn inh | DUX4 txn inh difference | DUX4 txn inh control
COc1ccc2c3c([nH]c2c1)[C@@H](CO)N(C(=O)Cc1ccccc1)CC31CN(C(=O)Cc2ccccc2)C1
 : 11.0 | -3.8 | 14.7
CC=Cc1ccc2n(c1=O)C[C@@H]1[C@@H](CO)[C@H](C(=O)NCCc3ccncc3)N(CCC(F)(F)F)[C@H]21 (mixture of isomers)
 : 4.5 | 0.7 | 3.8

Further records follow.
Compound	DUX4 txn inh	DUX4 txn inh difference	DUX4 txn inh control
COCC(=O)Nc1ccc2c(c1)C(=O)N(C)[C@H]1CC[C@H](CC(=O)NCC(F)(F)F)O[C@@H]1CO2	4.8	6.2	-1.4
CN(C)C(=O)c1cccc(-c2ccc([C@@H]3[C@@H](CO)N(C(=O)C4CCCCC4)[C@H]3C#N)cc2)c1	2.1	-5.9	8.0
O=C(C1CCCCC1)N1[C@@H]2CNc3ccccc3[C@@H]2[C@@H]1CO	4.3	-0.4	4.8
COc1ccc2c3c(n(C)c2c1)[C@H](CO)N(C)CC31CCN(S(=O)(=O)c2cccs2)CC1	?	.	.
N#C[C@@H]1[C@@H](c2ccc(C#Cc3ccccc3F)cc2)[C@H](CO)N1C(=O)C1CCCCC1	1.2	-2.9	4.1
CN(C)CC(=O)Nc1ccc2c(c1)[C@H]1C[C@H](CC(=O)NCc3ccccn3)O[C@@H](CO)[C@H]1O2	7.6	-3.2	10.8
Cn1cnc(CCNC(=O)C[C@H]2CC[C@H]3[C@@H](COC[C@@H](O)CN3C(=O)Nc3ccc(C(F)(F)F)cc3)O2)c1	7.7	4.1	3.6
O=C(NCCc1ccncc1)[C@H]1[C@H](CO)[C@H]2Cn3c(ccc(-c4ccccc4)c3=O)[C@H]2N1C(=O)C1CC1	1.6	3.9	-2.2
CC(C)(C)[S@](=O)N1Cc2cc(C(=O)N[C@H]3CCN(Cc4ccccc4)C3)nc(-c3cccc(-c4cccnc4)c3)c2[C@@H]1CCO	5.5	4.0	1.5
CCN(C[C@H]1[C@@H](c2ccccc2)[C@@H](CO)N1C(=O)COC)S(C)(=O)=O	1.7	0.2	1.5
CC(C)NC(=O)N1[C@H](C#N)[C@@H](c2ccc(C#CC3CCCCC3)cc2)[C@@H]1CO	-4.9	-4.8	-0.1
CC(C)NC(=O)N1[C@@H]2CN(C)c3ccccc3[C@@H]2[C@@H]1CO	3.7	3.5	0.3
CN(C)CC#Cc1ccc([C@H]2[C@H]3CN(C(=O)c4ccc(F)cc4)CC(=O)N3[C@H]2CO)cc1	-0.2	-5.9	5.6
C/C=C/c1cnc2c(c1)C(=O)N([C@H](C)CO)C[C@@H](C)[C@@H](CN(C)C(=O)Nc1cccc(OC)c1)O2	0.1	0.6	-0.4
CC(C)CC#Cc1ccc([C@H]2[C@@H](CO)N3C(=O)CN(S(=O)(=O)c4cccc(F)c4)C[C@@H]23)cc1	?	.	.
CCCNC(=O)N1C[C@@H]2[C@H](c3ccccc31)[C@@H](CO)N2C(=O)NCCC	-2.3	2.2	-4.5
COCCNC(=O)[C@H]1[C@H](CO)[C@H]2Cn3c(ccc(-c4ccccc4OC)c3=O)[C@H]2N1C(=O)C1CCC1	5.0	-4.1	9.1
O=C(Nc1cccc(Cl)c1)N1C[C@H]2[C@@H](c3ccccc31)[C@@H](CO)N2C(=O)C1CCCC1	-4.7	-2.9	-1.7
COc1ccc(C[C@@H]2CCn3cc(nn3)COC[C@H](c3ccccc3)NC2=O)cc1	3.3	3.3	-0.1
O=C(C[C@H]1CC[C@H]2[C@@H](COC[C@H](O)CN2C(=O)c2cnccn2)O1)NCc1ccccc1	6.9	8.7	-1.9

Compound profiles, from the list above.
O=C(NCCc1ccncc1)[C@H]1[C@H](CO)[C@H]2Cn3c(ccc(-c4ccccc4)c3=O)[C@H]2N1C(=O)C1CC1 is listed as DUX4 txn inh = 1.6; DUX4 txn inh difference = 3.9; DUX4 txn inh control = -2.2
COc1ccc(C[C@@H]2CCn3cc(nn3)COC[C@H](c3ccccc3)NC2=O)cc1 is listed as DUX4 txn inh = 3.3; DUX4 txn inh difference = 3.3; DUX4 txn inh control = -0.1

Additional compounds follow.
Compound	DUX4 txn inh	DUX4 txn inh difference	DUX4 txn inh control
O=C(c1ccc2c(c1)OCO2)N1CC(=O)N2[C@H](CO)[C@H](c3ccc(C#Cc4ccccc4)cc3)[C@H]2C1	?	.	.
CC(=O)N1[C@H](C(=O)N2CCCCC2)[C@@H](CO)[C@@H]2Cn3c(ccc(C4=CCCC4)c3=O)[C@@H]21	-0.3	-2.5	2.3
C[C@@H]1CCCCO[C@@H](CN(C)C(=O)c2ccncc2)[C@@H](C)CN([C@H](C)CO)C(=O)c2cc(NC(=O)CCC(F)(F)F)ccc2O1	3.0	6.4	-3.4
C[C@H](NC(=O)C[C@@H]1CC[C@@H]2[C@H](COC[C@H](O)CN2Cc2cc(F)ccc2F)O1)c1ccccc1	-3.7	-1.5	-2.2
O=C(C[C@@H]1CC[C@H]2[C@@H](COC[C@@H](O)CN2C(=O)c2ccccc2)O1)Nc1ccc(-c2ccccc2)cc1	-6.6	0.2	-6.9
Cc1ccc(S(=O)(=O)Nc2ccc3c(c2)C(=O)N([C@H](C)CO)C[C@@H](C)[C@@H](CN(C)Cc2ccc4c(c2)OCO4)OCCCC[C@@H](C)O3)cc1	2.4	2.6	-0.2
COc1ccc2c3c(n(C)c2c1)[C@H](CO)N(C(=O)Nc1ccccc1F)CC31CN(C(C)=O)C1	11.1	-1.2	12.3
O=C(C[C@H]1CC[C@H]2[C@@H](COC[C@@H](O)CN2C(=O)Nc2ccc(F)cc2)O1)NCCc1ccccc1	0.7	1.6	-1.0
C/C=C/c1cnc2c(c1)C(=O)N([C@H](C)CO)C[C@@H](C)[C@H](CN(C)S(=O)(=O)c1ccc(OC)cc1)O2	1.5	3.9	-2.4
O=C(C[C@@H]1C[C@@H]2c3cc(NC(=O)Cc4ccncc4)ccc3O[C@@H]2[C@H](CO)O1)NCc1cccc(F)c1	14.8	11.7	3.1
COc1ccc(NC(=O)N2CC(=O)N3[C@H](C2)[C@@H](c2ccc(Br)cc2)[C@@H]3CO)cc1	-1.7	7.0	-8.7
COc1ccccc1CNC(=O)C[C@H]1CC[C@@H]2[C@H](COc3ccc(NC(C)=O)cc3C(=O)N2C)O1	-3.4	-3.5	0.2
CC(=O)N(C)C[C@H]1OCc2ccccc2-c2ccccc2C(=O)N([C@@H](C)CO)C[C@H]1C	6.8	10.1	-3.3
O=C(Cc1ccccn1)N[C@@H]1CC[C@@H](CCn2cc(-c3ccc(F)cc3)nn2)O[C@H]1CO	?	.	.
COc1cccc(CNC(=O)[C@@H]2[C@@H](CO)[C@@H]3Cn4c(cccc4=O)[C@H]2N3C(=O)C2CCC2)c1	2.8	-4.4	7.3
O=C(Cc1ccncc1)N1CC[C@@H]2[C@H](CO)Nc3ccc(-c4ccccc4F)cc3[C@@H]21	-48.0*	-27.1*	-20.8*
CC(C)NC(=O)N1[C@@H]2c3ccc(-c4ccc(F)cc4)c(=O)n3C[C@@H]2[C@@H](CO)[C@@H]1C(=O)N1CCOCC1	12.6	9.7	2.9
CCCNC(=O)[C@@H]1[C@@H](CO)[C@@H]2Cn3c(ccc(-c4ccccc4F)c3=O)[C@H]1N2C(C)=O	11.9	9.6	2.3
N#C[C@H]1[C@@H](c2ccc(-c3cccc(F)c3)cc2)[C@H](CO)N1C(=O)c1cccnc1	0.8	-1.0	1.8
Cc1noc(C)c1NC(=O)N(C)C[C@H]1Oc2ccc(NC(=O)CCCN(C)C)cc2C(=O)N([C@@H](C)CO)C[C@@H]1C	-0.3	2.0	-2.2
CCCNC(=O)N1CC(=O)N2[C@@H](CO)[C@@H](c3ccc(C#Cc4cccc(OC)c4)cc3)[C@@H]2C1	-3.6	0.4	-4.1
CO[C@H]1CC[C@H]2CCN(C)C(=O)[C@H](C)CN(C)C(=O)c3cccc(C#N)c3OC[C@H]1O2	-2.1	-1.7	-0.4
O=C1CN(S(=O)(=O)c2ccccc2)C[C@H]2[C@H](c3ccc(C#CCc4ccccc4)cc3)[C@@H](CO)N12	4.0	-5.8	9.8
COc1ccc2c3c(n(C)c2c1)[C@@H](CO)N(C(C)=O)CC31CN(Cc2ccccc2OC)C1	?	.	.
O=C(C[C@H]1CC[C@@H]2[C@H](COC[C@@H](O)CN2C(=O)Nc2ccc(Cl)cc2)O1)NCC1CCCCC1	?	.	.
O=C(C[C@H]1CC[C@@H](NC(=O)CC2CC2)[C@@H](CO)O1)NCC(F)(F)F	-0.9	-1.5	0.6
CC(C)NC(=O)N1C[C@H]2[C@@H](c3ccccc31)[C@@H](CO)N2C(=O)Nc1ccccc1	-1.3	-3.1	1.8
CO[C@H]1CN(C)C(=O)c2cc(NS(=O)(=O)c3ccc(F)cc3)ccc2OC[C@H](C)NC[C@@H]1C	-2.1	-1.9	-0.2
Cc1cccc(-c2ccc([C@H]3[C@@H](CO)N4CCCCN(Cc5ccncc5)C[C@@H]34)cc2)c1	6.6	-17.2	23.8
COCC(=O)N1C[C@@H](C)[C@H](OC)CN(C)C(=O)c2ccc(NC(=O)c3ccc(-c4ccccc4)cc3)cc2OC[C@H]1C	?	.	.
Cc1cccc(S(=O)(=O)N[C@@H]2CC[C@@H](CCNS(=O)(=O)c3ccccc3F)O[C@H]2CO)c1	-3.6	-5.7	2.1
O=C1CNC[C@H]2[C@@H](c3ccc(C#Cc4cccnc4)cc3)[C@@H](CO)N12	?	.	.
Cc1noc(C)c1NC(=O)Nc1ccc2c(c1)C(=O)N([C@@H](C)CO)C[C@H](C)[C@H](CN(C)Cc1ccc3c(c1)OCO3)OCCCC[C@H](C)O2	5.0	-4.0	9.0
CO[C@@H]1CN(C)C(=O)c2ccc(NC(=O)C3CCC3)cc2OC[C@@H](C)NC[C@H]1C	-1.2	-7.4	6.2
COc1ccc(S(=O)(=O)Nc2ccc3c(c2)C(=O)N([C@H](C)CO)C[C@H](C)[C@@H](CN(C)S(=O)(=O)c2ccc(Cl)cc2)OCCCC[C@@H](C)O3)cc1	1.1	0.4	0.7
CCNC(=O)[C@@H]1[C@@H](CO)[C@@H]2Cn3c(ccc(-c4ccc(OC)cc4)c3=O)[C@@H]2N1Cc1nccs1	-2.2	-3.5	1.3
